High-throughput results deposited in PubChem by National Center for Advancing Translational Sciences (NCATS).
D2 ag: Beta-Arrestin HTS for Positive Allosteric Modulators of the Human D2 Dopamine Receptor: Agonists | 0.084% of 360,000 active | AID 624465, 2012 | DiscoveRx PathHunter D2 beta-arrestin, luminescence, 90 min; 100% = 57 uM dopamine signal | D(2) dopamine receptor (Homo sapiens), P14416 | activation, % (test concentration not listed); in the data active = activation above about 40%; inconclusive = about 15% to 40%; inactive = below about 15%; also: compound concentration not given in the record; the text of the record calls up to 30% inactive
Target sequence (P14416 whole entry, looked up): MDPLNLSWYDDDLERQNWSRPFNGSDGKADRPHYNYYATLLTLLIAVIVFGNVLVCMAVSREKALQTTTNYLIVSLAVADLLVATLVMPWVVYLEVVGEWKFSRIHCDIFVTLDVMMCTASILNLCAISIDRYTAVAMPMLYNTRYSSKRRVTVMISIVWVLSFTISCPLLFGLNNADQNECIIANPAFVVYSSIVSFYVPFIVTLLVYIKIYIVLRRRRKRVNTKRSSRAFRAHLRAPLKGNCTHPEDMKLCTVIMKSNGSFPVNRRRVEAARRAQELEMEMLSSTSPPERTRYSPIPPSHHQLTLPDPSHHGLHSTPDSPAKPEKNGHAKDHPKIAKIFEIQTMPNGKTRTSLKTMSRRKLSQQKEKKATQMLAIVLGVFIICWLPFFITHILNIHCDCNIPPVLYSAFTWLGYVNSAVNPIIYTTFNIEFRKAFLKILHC
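DiscoveRx PathHunter D2 beta-arrestin cells (2,100/well) attached overnight, then compound-stimulated 90 min at 37 C in HBSS/10 mM HEPES/0.1% Tween-20 buffer; beta-galactosidase complementation read by luminescence after 1 h at ambient temperature. Dopamine 57 uM final (EC100) as control.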
ClpP mod: qHTS Assay for Activators of ClpP. purified B. subtilis ClpP, FRET peptide cleavage, 20 min. Potency, µM (doses to about 57.5 µM), for the others: at the top dose activity change, negative = active. 1.9% of 340,000 active; active = well fitted falling curve with a large enough effect; inconclusive = small, poorly fitted or top-dose-only effect; inactive = no such curve, though single readings can be large or run the other way; also: potency is read from the fitted curve at half-maximal effect; the source files actives as falling curves though it sought activators and does not explain the sign; nearly all actives have a fitted effect of over 65% in size; many hits overshoot -100%
Target sequence (P80244 whole entry, looked up): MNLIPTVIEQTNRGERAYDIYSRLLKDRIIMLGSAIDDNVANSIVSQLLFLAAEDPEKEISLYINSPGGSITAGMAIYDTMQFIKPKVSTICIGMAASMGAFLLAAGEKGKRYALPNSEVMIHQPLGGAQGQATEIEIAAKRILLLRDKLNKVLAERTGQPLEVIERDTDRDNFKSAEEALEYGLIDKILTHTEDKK
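ClpP 10 microg/mL final, pH 8 Tris/KCl buffer with BSA, glycerol, Tween-20; compound pinned in; FRET-FV substrate; RT 20 min; Ex320/Em430; ΔFRET vs ADEP 5.8 microM, DMSO, no enzyme.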
gsp antagonist: qHTS for Antagonists of gsp, the Etiologic Mutation Responsible for Fibrous Dysplasia/McCune-Albright Syndrome: qHTS; gsp-mutant cells, cAMP HTRF, 30 min; control for the full effect not named in the record; Potency, µM (doses to about 76.9 µM), inactives show top-dose activity change, negative = inhibition, actives largely listed as inhibitors; 0.4% of 340,000 active; AID 624288, 2012; active = falling curve of any shape with a large fitted effect; inconclusive = falling curve, mostly with a smaller effect; inactive = flat or rising curve; cell line not stated here;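 also: intracellular cAMP measured with PDE inhibitor Ro 20-1724 present during compound exposure; potency is read from the fitted curve at half-maximal effect; % is scaled to controls: 0 for no effect and ±100 for the full control effect; nearly all actives have a fitted effect of over 65% in size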
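Cells in G418 medium, seeded 16-24 h, 37C; buffer exchange to DPBS + 1 mM CaCl2, 0.5 mM MgCl2, 0.05% BSA; cpds in DMSO + […] (300 uM stock), 30 min 37C; HTRF cAMP detection.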
gsp agonist: qHTS for Agonist of gsp, the Etiologic Mutation Responsible for Fibrous Dysplasia/McCune-Albright Syndrome: qHTS; gsp mutant cells, cAMP HTRF, 30 min; control for the full effect not named in the record; Potency, µM (highest dose often 76.9 µM), inactives show at the highest dose activation (cAMP increase), hits mostly activators; 0.13% of 340,000 active; AID 624287, 2012; active = well fitted activation curve with a large enough effect; inconclusive = small, poorly fitted or top-dose-only effect, or another doubt; inactive = no such curve, though single readings can be large or run the other way; cell line not stated here;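 also: phosphodiesterase inhibitor Ro 20-1724 added with compounds to block cAMP breakdown; potency is read from the fitted curve at half-maximal effect; nearly all actives have a fitted effect of over 60% in size; about a fifth of the inactives were tested at one dose only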
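Cells in DMEM/10% FBS with G418 were pretreated with compounds in DMSO plus […] (300 uM stock) for 30 min at 37C. cAMP was measured by HTRF (cAMP-d2 plus anti-cAMP antibody-K) after 30 min at room temperature.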
Menin-MLL FL inh: qHTS Assay for Inhibitors Targeting the Menin-MLL Interaction in MLL Related Leukemias: Competition With Fluorescein Labeled MLL-derived Peptide; Fluorescence polarization, fluorescein-MLL peptide displacement from menin; FP activity change, % at 61.4 µM; 290,000 tested, under 10 active; AID 1766, 2009; inconclusive = falling polarisation curve, or a change in total fluorescence; inactive = total fluorescence flat and polarisation flat or rising; no compound was filed as active; the % refers to the polarisation; negative = inhibition;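 also: % of control where 0% means no effect; inhibitors lower the polarisation; unlabelled MLL peptide was the positive control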
PINK1 modulator: A Quantitative High throughput Screen to Identify Chemical Modulators of PINK1 Expression | PINK1 immunofluorescence, high-content cytometry, 24 h | Potency, µM (titrated, usually from 76.6 µM), inactives show at the highest dose activation (PINK1 increase), hits mostly activators | 0.2% of 410,000 active; active = well fitted activation curve with a large enough effect; inconclusive = small, poorly fitted or top-dose-only effect; inactive = flat fitted curve, though single readings scatter; cell line not stated here;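 also: potency is read from the fitted curve at half-maximal effect; % of control where 0% means no effect; nearly all actives have a fitted effect of over 65% in size; a mitochondrial uncoupler was the plate control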
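Fluorescence from anti-PINK1 antibody, together with nuclear and cell stains, was scanned on a laser-scanning cytometer. Before staining, stable-line cells were incubated 24 hours with compounds at 5 concentrations; primary antibody 12 h at 10 degrees C.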
Sfp inh: qHTS Assay for Inhibitors of Bacillus subtilis Sfp phosphopantetheinyl transferase (PPTase); 4'-phosphopantetheinyl transferase ffp (Bacillus subtilis), Q9F4F7; Biochemical Sfp PPTase activity, qHTS; Potency, µM, without a hit: max response, negative = inhibition, hits mostly inhibitors; 3.5% of 310,000 active; active = well fitted inhibition curve with a large enough effect; inconclusive = small, poorly fitted or top-dose-only effect, or another doubt; inactive = no such curve, though single readings can be large or run the other way;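 also: the enzyme is Sfp with the accession as filed and its product quenches rhodamine fluorescence; potency is read from the fitted curve at half-maximal effect; 0% = enzyme reaction without inhibitor and -100% = no enzyme wells; top concentration of the series not given in the record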
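Compounds were incubated with enzyme (final 15 nM) for 15 min at room temperature before substrate addition started the reaction. Fluorescence at 525 nm excitation, 598 nm emission was recorded immediately and after 30 minutes.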
Starred values were filed as active, the others as inactive; ? = inconclusive; · = no result given; [ ] = remark or other dose.

Sample of the layout, 2 compounds:
#	compound	ClpP mod	gsp agonist	Menin-MLL FL inh	D2 ag	Sfp inh	gsp antagonist	PINK1 modulator
1	CCN(CC(=O)Nc1ccc(NC(C)=O)cc1)C(=O)/C=C/c1ccc(S(=O)(=O)N2CCCCCC2)cc1	0.2%	8%	0.1	-1.8	-1%	2%	14%
2	Cc1cccc(NC(=O)CNC(=O)c2cccs2)n1	-3.6%	-29%	·	-0.2	·	5%	?

The list itself, from the start:
#	compound	ClpP mod	gsp agonist	Menin-MLL FL inh	D2 ag	Sfp inh	gsp antagonist	PINK1 modulator
1	CCN(CC(=O)Nc1ccc(NC(C)=O)cc1)C(=O)/C=C/c1ccc(S(=O)(=O)N2CCCCCC2)cc1	0.2%	8%	0.1	-1.8	-1%	2%	14%
2	Cc1cccc(NC(=O)CNC(=O)c2cccs2)n1	-3.6%	-29%	·	-0.2	·	5%	?
3	O=c1/c(=C\c2ccc3c(c2)OCO3)sc2n1CCCN=2	-3.5%	18%	3.2	-0.9	7%	-1%	-1.5%
4	Nc1nc2nonc2nc1N	·	10%[15.4 µM]	0.8	-8.2	22%	0%	-1.5%
5	O=C(NCCO)C(=O)NCC1OCCCN1S(=O)(=O)c1cc(F)ccc1F (stereo not drawn)	-2.1%	-42%[inhibitor]	·	-3.0	12%	-1%	0.0%
6	CCN(CC)C(=O)CSc1nc2ccccc2c(=O)n1CCC(=O)NCCc1ccc(OC)c(OC)c1	·	-7%[15.4 µM]	0.2	0.3	4%	17%	0.7%
7	O=C(Nc1ccccc1N1CCCCC1)c1ccc(-c2ccc(Cl)cc2)o1	0.9%	5%[15.4 µM]	·	-5.5	-11%	19%	9.3%
8	CC(=O)C1=C(O)C(=CC=Cc2ccccc2)OC1=O	-27%	-45%	·	-8.6	·	·	0.5%
9	Cc1cc(C)cc(OC(=O)C23CCC(C)(C(=O)O2)C3(C)C)c1 (stereo not drawn)	·	10%	0.2	8.4	9%	-3%	1.2%
10	COc1cc(C)ccc1S(=O)(=O)NC(=O)C1(C)CCN1C(=O)Cc1ccc(C(C)(C)C)cc1 (stereo not drawn)	2.1%	·	·	-1.7	·	·	0.7%
11	COc1cc(C2C(C#N)=C(N)Oc3cc(C)n(CC4CCCO4)c(=O)c32)cc2c1OCO2 (stereo not drawn)	-11%	29%	2.9	1.0	-29%	-16%	-0.5%
12	O=C(Cc1ccc(S(=O)(=O)N2CCOCC2)s1)NNC(=O)c1ccccc1Cl	-5.9%	?	·	-4.5	·	5%	-0.9%
13	O=[N+]([O-])c1ccc(CN2CCOCCOCCN(Cc3ccc([N+](=O)[O-])cc3)CCOCC2)cc1	·	-2%[15.4 µM]	2.8	1.1	?	-22%	-1.2%
14	N#CCCn1c(=O)c(CCc2ccccc2)nc2cnc(Nc3ccccc3)nc21	·	·	?	·	10%	·	0.4%
15	COc1ccc(-c2nnc(SCC(=O)Nc3sc4c(c3C#N)CCC4)n2CC2CCCO2)cc1 (stereo not drawn)	12%	-11%	5.1	-2.7	13%	-11%[15.4 µM]	-0.9%
16	CC(OC(=O)Cc1n[nH]c(=O)c2ccccc12)C(=O)Nc1cc(Cl)cc(Cl)c1 (stereo not drawn)	·	-21%[15.4 µM]	·	-0.1	·	-2%	5.9%
17	CCCCNC(=O)N1CCOCCOCCN(C(=O)NCCCC)CCOCC1	-2.0%	0%	1.8	-3.5	16%	-2%[15.4 µM]	0.4%
18	CSC(=NC#N)N1CCN(c2ccccn2)CC1	·	-2%[15.4 µM]	-3.7	5.3	10%	5%	0.1%
19	COC(C(=O)NC1CCCCCCC1)c1ccccc1 (stereo not drawn)	1.5%	?	7.0	-1.4	7%	7%	-1.7%
20	O=C(NC(=S)NCc1ccccc1)c1ccccc1Br	-0.7%	10%[15.4 µM]	0.0	2.9	-13%	-2%	-0.5%

(cont.)
#	compound	ClpP mod	gsp agonist	Menin-MLL FL inh	D2 ag	Sfp inh	gsp antagonist	PINK1 modulator
21	CC(=O)NC12CC3CC(C1)CC(C(=O)NCc1ccc(C)cc1)(C3)C2	·	-4%	26	-1.5	23%	7%	1.1%
22	O=C(CC1Oc2ccccc2NC1=O)NCCc1ccccc1 (stereo not drawn)	-1.2%	21%	5.7	-1.0	17%	0%	-0.3%
23	Cc1cc(C)cc(-n2c(C)cc(C(=S)N3CCOCC3)c2C)c1	-2.0%	16%[15.4 µM]	-4.1	-8.6	?	-19%	0.2%
24	Cn1cccc1C(=O)OCC(=O)c1cc2ccccc2o1	-11%	-32%[inhibitor]	4.2	-1.4	-9%	-11%	1.5%[38.3 µM]
25	Cc1cccc(CNc2cc(-c3ccc(C(=O)N(C)C)cc3)ncn2)c1	·	·	0.9	·	-17%	·	1.9%
26	O=C(NC1CCCCCC1)C1c2ccccc2C(=O)N1Cc1cccnc1 (stereo not drawn)	1.3%	-22%	2.1	-0.7	13%	-16%	-3.4%[38.3 µM]
27	C=CC[C@@H](CC(=O)N[C@H](CO)Cc1ccccc1)C(=O)N[C@@H](C)COC(=O)[C@@H](CC=C)Cc1ccc(F)cc1	-0.7%	1%	·	-2.3	·	-2%	1.0%
28	CCOc1ccc(-n2cnc3c(=O)[nH]c(N)nc32)cc1	-1.3%	27%	1.2	0.1	3%	6%	4.2%
29	COc1ccc(CNC(=O)c2cccnc2Sc2ccc(C)c(C)c2)cc1	-4.3%	-2%	-1.0	0.1	-9%	0%	2.1%
30	Cc1ccc(C2SCCN2C(=O)c2ccc([N+](=O)[O-])cc2)cc1 (stereo not drawn)	-1.0%	?	·	0.7	-3%	-5%	0.1%
31	CCOC(=O)C1=NNC2(c3ccc(Cl)cc3)C(=O)N(c3ccc(C)cc3)C(=O)C12 (stereo not drawn)	-2.7%	-38%[inhibitor]	0.0	-0.8	12%	-9%	-0.9%
32	CC(=O)c1cccc(NC(=S)NCCC2=CCCCC2)c1	-0.1%	5%	0.9	0.3	9%	1%	0.6%
33	Cc1ccc(S(=O)(=O)c2c(C)cc(C)[nH]c2=O)c(C)c1	-18%	3%	5.0	-2.8	14%	7%	0.0%
34	COCCn1c(=NC(=O)c2ccc3c(c2)OCCO3)sc2cc(S(N)(=O)=O)ccc21	?	40%	5.3	2.5	10%	21%	?
35	Cc1cccc(S(=O)(=O)C(C#N)c2nc3ccccc3nc2N2CCCC2)c1 (stereo not drawn)	?	-9%	?	-7.3	-27%	-12%	1.0%
36	COc1ccccc1N1CCN(C2CCCN(S(=O)(=O)c3ccccc3)C2)CC1 (stereo not drawn)	-2.6%	-21%	-3.9	-5.7	1%	0%	0.6%
37	Cc1ccc(N2C(=O)C3CCCN3C2=S)cc1C (stereo not drawn)	·	41%	-1.0	-0.8	-7%	4%	?
38	CCCCn1nnnc1C(c1ccnc2ccccc12)N1CCN(C/C=C/c2ccccc2)CC1 (stereo not drawn)	0.0%	·	·	-4.1	·	·	2.9%
39	O=C(O)C1CC(=O)N(Cc2cccnc2)C1 (stereo not drawn)	-2.4%	14%	1.1	-3.2	-5%	5%	·
40	Cc1ccc(C(=O)NCC(=O)OCCCn2c(=O)[nH]c3ccccc32)cc1	·	31%[15.4 µM]	·	-1.6	·	-4%	1.6%

Next section.
#	compound	ClpP mod	gsp agonist	Menin-MLL FL inh	D2 ag	Sfp inh	gsp antagonist	PINK1 modulator
41	C=CC(C)(C)O[C@@H]1O[C@H](CO)[C@@H](O)[C@H](O)[C@H]1O	0.6%	-18%	·	-3.4	·	8%	2.3%
42	COc1cc(CNCCN2CCOCC2)ccc1OCC(=O)NC(C)(C)C	·	-1%	-4.7	-2.5	71µM*	9%	1.4%
43	CC[C@@H](C)[C@@H]1CN([C@@H](CN2CCC[C@H]2CN2C(N)=NC[C@H]2C(C)C)C(C)C)C(=N)N1CCc1ccc(Cl)c(Cl)c1	-1.5%	·	·	-4.2	·	-3%	0.2%
44	Cc1ccccc1-c1nc(CN2CCC(C(=O)NC3CCN(Cc4ccccc4)CC3)CC2)c(C)o1	-0.1%	-78%[inhibitor]	·	-2.4	·	3%	0.6%
45	CN1CCc2c(sc3nc(SCC(=O)NCc4ccco4)n(-c4ccccc4)c(=O)c23)C1	4.3%	0%	26	4.1	0%	-1%	-0.6%
46	CSCCC(=O)NC1CCCN(CCc2ccccc2)C1 (stereo not drawn)	-1.4%	6%[15.4 µM]	-5.3	0.7	10%	13%	-0.3%
47	CCCOc1ccc(OC(=O)c2ccc(Br)o2)cc1	-2.0%	15%	-2.2	-6.5	0%	-6%	17%
48	O=C(CSc1nnc(COc2ccc(Cl)cc2)o1)N(c1ccccc1)C1CCS(=O)(=O)C1 (stereo not drawn)	-1.5%	-53%[inhibitor]	·	-0.2	·	·	-0.9%
49	O=C(COC(=O)Cc1ccc(F)cc1)NC1CCCCCC1	·	-10%[15.4 µM]	·	-1.7	·	6%	-2.9%
50	CN(CC(=O)Nc1ccccc1Cl)C(=O)COC(=O)c1cnccn1	0.7%	?	·	-1.5	12%	-1%	1.3%
51	CCOC(=O)N1CCN(S(=O)(=O)N2CCCC(C(=O)NCc3ccccc3Cl)C2)CC1 (stereo not drawn)	0.8%	-23%	5.2	-0.6	23%	-18%	-1.1%
52	CC(C)Oc1ccccc1OCCCCn1cnc2ccccc2c1=O	-0.1%	5%	2.4	-1.4	15%	5%	1.7%
53	CCN1CCN(C(=O)c2ccccc2Nc2ccc(SC(F)F)cc2)CC1	·	20%	0.5	-4.8	10%	7%	-1.7%
54	CCCC1(CCC)NC(=O)N(CC(=O)c2cc(C)n(-c3ccc4c(c3)OCO4)c2C)C1=O	-1.6%	3%[15.4 µM]	1.5	2.3	8%	0%	-1.5%
